ALR H2O2 inh = human ALR oxidase inhibition via reduced H2O2; P55789; purified ALR, DTT oxidation, H2O2 HRP-luminol luminescence; inhibition, % (concentration not given with the values); actives 3.8% (n = 290,000);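 active means mean and each replicate at 75% or more; inconclusive means only one of the two met; inactive means neither met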;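 further: stock transfer was 7.5 nL into about 7.5 µL; 0% = neutral wells and 100% = wells with inactivated enzyme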
Target sequence (P55789 whole entry, looked up): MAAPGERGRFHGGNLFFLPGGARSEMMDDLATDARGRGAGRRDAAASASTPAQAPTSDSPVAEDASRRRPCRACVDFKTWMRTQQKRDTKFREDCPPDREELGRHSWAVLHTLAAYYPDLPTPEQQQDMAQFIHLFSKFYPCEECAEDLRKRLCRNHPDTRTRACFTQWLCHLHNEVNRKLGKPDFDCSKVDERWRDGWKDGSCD
HNF4A DNA FP = change in binding of human HNF4 alpha to DNA. P41235. HNF4a-FITC DNA binding, fluorescence polarization, 1 h. activity change, % at 10 µM. actives 0.3% (n = 360,000); in the data active means activity change above about 30%, passing the limit was not always enough;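 further: controls were the assay level and a saturating level of protein; the project sought stronger binding though the title names inhibitors; some compounds called inactive have numbers as strong as hits; positive values seem to mean higher polarization but the record does not say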
AF4-AF9 inh = MLL-AF4/AF9 protein interaction inhibition | P42568 | AlphaScreen, biotin-AF4 peptide binding to FLAG-AF9 | actives 0.47% (n = 350,000) | inhibition, % at 10 µM;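 active means every replicate reaching a set inhibition limit, whatever the replicate mean, cut at about 25% in these data; inconclusive means mean inhibition reaches that limit but some replicates miss it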;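 further: 0% = plate neutral control median and 100% = total signal loss; the record names both 10 and 1 µM as test concentration; the first replicate is given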
Target sequence (P42568 whole entry, looked up): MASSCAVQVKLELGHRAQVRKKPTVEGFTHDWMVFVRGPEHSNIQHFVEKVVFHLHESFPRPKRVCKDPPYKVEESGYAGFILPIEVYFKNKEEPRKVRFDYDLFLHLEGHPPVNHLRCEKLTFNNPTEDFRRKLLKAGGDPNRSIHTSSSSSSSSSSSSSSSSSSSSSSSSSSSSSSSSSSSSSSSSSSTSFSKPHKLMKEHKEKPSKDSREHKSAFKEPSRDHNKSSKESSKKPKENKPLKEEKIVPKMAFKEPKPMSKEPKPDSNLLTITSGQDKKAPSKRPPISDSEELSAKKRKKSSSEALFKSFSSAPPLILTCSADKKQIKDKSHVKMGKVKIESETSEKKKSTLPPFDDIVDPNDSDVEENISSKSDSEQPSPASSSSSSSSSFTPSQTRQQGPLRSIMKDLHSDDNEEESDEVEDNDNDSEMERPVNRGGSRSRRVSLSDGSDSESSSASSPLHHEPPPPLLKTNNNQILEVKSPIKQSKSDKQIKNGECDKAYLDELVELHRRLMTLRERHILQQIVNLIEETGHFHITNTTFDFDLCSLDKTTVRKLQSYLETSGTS
Ecoli growth = blocks Escherichia coli growth | OD600, 23 h; stronger effect = lower value | OD600 absorbance (concentration not given with the values) | actives 0.21% (n = 330,000) | AID 1053175;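 active means OD600 absorbance below the run mean of sample wells minus 3.6 SD, in any replicate, cut at about 0.56 in these data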;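 further: stock transfer was 300 nL into about 60 µL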
Ecoli rRNA inh = inhibits bacterial ribosomal RNA function over humanized ribosomes; E. coli WT GFP vs humanized-ribosome RFP mutants, fluorescence, 24 h; stronger effect = lower value; DMSO median 0, no signal -100; GFP signal change (wild-type ribosome), % (test concentration not listed); actives 1.6% (n = 350,000); AID 720706;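 active means significant combined selectivity score with lowered wild-type GFP, culture density cut under 30%, mutant RFP and density less affected; inactive means any of these conditions unmet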; further: one replicate is shown; some compounds called inactive have numbers as strong as hits
FGF22 binding = FGF22 (human) thermal shift binding; recombinant FGF22 thermal shift, SYPRO orange fluorescence; percent of sucrose octasulfate shift, DMSO zero; calls only at 9.99 µM; Q9HCT0; actives 1.5% (n = 340,000);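 active means melting point raised past a set limit in the mean and every replicate; inconclusive means no clear call; three in four hits are not shown here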
Target sequence (Q9HCT0 whole entry, looked up): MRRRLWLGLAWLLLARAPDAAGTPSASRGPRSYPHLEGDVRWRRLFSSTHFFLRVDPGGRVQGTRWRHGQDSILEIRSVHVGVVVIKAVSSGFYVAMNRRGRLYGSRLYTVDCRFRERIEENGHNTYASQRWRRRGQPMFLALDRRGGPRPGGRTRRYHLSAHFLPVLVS
Vif TR-FRET = inhibitors of Vif binding to APOBEC3G peptide, primary screen, biochemical, TR-FRET, GST-Vif 1-94, biotin-A3G peptide, dose response retest (AID 1117319); TR-FRET GST-Vif / biotin-A3G peptide binding; higher % means a stronger effect; test concentration not given here; strong numbers were not always called active; inhibition, %; hits with a dose series show IC50 in µM; actives 0.57% (n = 260,000);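 active means above the screen mean plus three standard deviations and confirmed in dose response; inconclusive means results disagree or hit not tested in dose response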;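 further: Vif residues 1-94 fused to GST binding biotinylated APOBEC3G peptide 110-148; 0% = full assay without inhibitor and 100% = GST in place of GST-Vif; retest series ran down from 100 µM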
Ecoli rRNA inh OD600 = also measured in Ecoli rRNA inh; calls as there; OD600 change, %; measured here: OD600 growth;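 optical density of the mix in the first replicate; 0 = DMSO median and -100 = no signal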
Ecoli rRNA inh RFP = recorded beside Ecoli rRNA inh, whose call it bears; RFP signal change, %; measured here: RFP humanized mutant strains;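 first replicate; 0 = DMSO median and -100 = no signal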
An asterisk follows results filed as active; i = inactive; ? = inconclusive; nt = not tested or not shown; & = joins results of further samples.

SMILES	ALR H2O2 inh	HNF4A DNA FP	AF4-AF9 inh	Ecoli growth	Ecoli rRNA inh	Ecoli rRNA inh OD600	Ecoli rRNA inh RFP	FGF22 binding	Vif TR-FRET
COCC(=O)NC[C@H]1[C@H](c2ccccc2)[C@@H](CO)N1C(C)=O	nt	nt	-3.5	nt	5	5	-1.3	i	nt
CC1CC2(CCCC2)N(C(=O)N(C)C)c2ccc(F)cc21 (centres undefined)	-7	4.8	-0.1	0.68	2	4	-0.7	i	-9%
CC1CCN(C(c2ccc(N(C)C)cc2)c2nnnn2Cc2ccc(F)cc2)CC1 (centres undefined)	nt	1.9	nt	0.74	nt	nt	nt	nt	1%
Cc1ccc(NCN2C(=O)C3C4C=CC(C4)C3C2=O)cc1 (centres undefined)	62	-0.5	nt	0.78	nt	nt	nt	nt	7%
Cc1noc(C)c1CSCC(=O)N(C)CC(=O)Nc1cccc(F)c1	-14	-2.0	6.4	0.71	nt	nt	nt	i	nt
CCOC(=O)c1coc(CNC(=O)c2c(C)oc3c2CCCC3)c1	-6	-1.2	nt	0.7	nt	nt	nt	nt	2%
CC(C)(C)c1cc(NC(=O)CSc2nnc(N)s2)n(-c2ccccc2)n1	7	-0.7	nt	0.67	nt	nt	nt	nt	nt
O=C(Nc1ccccc1Cc1ccccc1)c1ccccc1NS(=O)(=O)c1ccc(Cl)s1	5	1.2	nt	nt	nt	nt	nt	nt	26%
Cc1sc2nc(CC(N)=O)[nH]c(=O)c2c1-c1ccccc1	-12	1.0	nt	0.67	nt	nt	nt	nt	15%
O=C(Nc1ccc(F)c(Cl)c1)c1cc(C2CCCN(C(=O)C3CC3)C2)on1 (centres undefined)	nt	-3.4	3.6	nt	-18	-19	-2.8	i	nt
COc1ccc(C(=O)COc2ccc(C)cc2NC(C)=O)cc1	-1	-2.5	-0.6	nt	-13	-19	-2.8	i	nt
CC(=O)N/C(=C/c1ccccc1)C(=O)NC(Cc1ccccc1)C(=O)O (centres undefined)	3	0.3	5.4	0.7	30	18	-0.8	i	31%
CS(=O)(=O)N1CC(=O)N2[C@H](CO)[C@@H](c3ccc(Br)cc3)[C@H]2C1	nt	nt	-2.6	nt	1	2	-0.5	i	nt
COc1cccc(CCNC(=O)C2CCC(=O)N(C3CC3)C2)c1OC (centres undefined)	nt	2.6	-1.3	0.7	-4	1	-2.2	i	nt
O=C(C1CCC1)N1C[C@H]2[C@@H](c3ccccc31)[C@@H](CO)N2C(=O)c1ccccc1	nt	nt	-11	nt	6	9	1.1	i	nt
Cc1nc2ccc(S(=O)(=O)NC(C(=O)NC3CCCC3)C(C)C)cc2s1 (centres undefined)	96*	-0.2	-9.1	0.77	10	10	-0.4	i	-4%
Cc1ccc(/C=C2/NC(=O)N(Cc3ccccc3F)C2=O)s1	0	75	nt	0.73	nt	nt	nt	nt	nt
Cn1ncc2c(NCc3cccc(C(F)(F)F)c3)c(C(=O)O)cnc21	-11	nt	0.6	0.69	24	0	-0.1	nt	1%
c1ccc(-c2cn3c(n2)-c2ccccc2C3)cc1	95*	3.6	-2.3	0.6	8	19	-2.3	i	-2%
CCOC(=O)c1cc(-c2ccc(F)cc2)n(CCC(=O)NC2CCN(Cc3ccccc3)CC2)c1C	0	0.4	23	0.69	-7	-4	-1.6	i	-5%
COc1ccc(NC(=O)Cn2nnc(C(N)=O)c2N)c(OC)c1	-18	-4.4	nt	0.73	11	10	-3.1	nt	6%
COc1ccc(F)cc1C1=CC(=O)C[C@H](c2ccc3c(c2)OCO3)C1	2	3.1	4.4	nt	-15	-30	-20	i	nt
C=CCn1c(C)cc(C(=O)CSc2n[nH]c(N)n2)c1C	98*	1.1	nt	0.66	nt	nt	nt	nt	7%
O=S(=O)(c1ccccc1)N1CCCCN2[C@H](C1)[C@@H](c1ccc(-c3cncnc3)cc1)[C@@H]2CO	nt	nt	-5.3	nt	-2	-4	1.6	i	nt
O=C(NCC(c1cccs1)N1CCOCC1)c1ccco1 (centres undefined)	4	3.1	nt	0.65	nt	nt	nt	nt	?
N#Cc1cc([N+](=O)[O-])ccc1NC(=O)COC(=O)CN1C(=O)C2CCCCC2C1=O (centres undefined)	-12	-1.1	-1.4	0.73	-5	6	-4.2	i	-3%
O=c1cc(-c2ccc(O)c(O)c2)oc2cc(O)c(C3OC(CO)C(O)C(O)C3O)c(O)c12 (centres undefined)	99*	-3.4	-2.7	0.64&0.74	nt	nt	nt	i	13µM*
CCC(CO)Oc1cc(NCc2ccccc2OC)c2ncn(C(C)C)c2c1 (centres undefined)	37	0.2	-2.4	0.64	-2	-4	2.6	i	nt
CC(C)C#Cc1cnc2c(c1)C(=O)N([C@H](C)CO)C[C@@H](C)[C@H](CN(C)C(=O)c1ccccc1)O2	nt	nt	0.3	nt	-4	-4	-0.6	i	nt
Cc1ccc(C(NC(=O)N2CCOCC2)C(Cl)(Cl)Cl)cc1F (centres undefined)	-4	-1.8	-1.8	0.71	-27	-28	-8.3	i	nt
Cc1cc(Cl)ccc1OCCCC(=O)NCc1ccncc1	-4	1.5	nt	0.61	nt	nt	nt	nt	-5%
CN(CC(=O)Nc1ccccc1Cl)C(=O)c1cc2c(s1)CCCCC2	nt	0.7	3.8	0.69	-12	-29	3.1	i	-2%
Cc1cc(N2CCN(c3nnnn3-c3ccccc3)CC2)n2ncnc2n1	-2	0.6	nt	0.77	nt	nt	nt	nt	-5%
CCc1ccc(OCCNC(=O)c2ccccc2SCc2ccc(F)cc2)cc1	-4	-1.3	nt	0.66	nt	nt	nt	nt	3%
C[C@@H](NC(=O)C[C@@H]1CC[C@@H]2[C@H](COC[C@H](O)CN2C(=O)Nc2cc(Cl)cc(Cl)c2)O1)c1ccccc1	nt	nt	1.3	nt	-38	-54	16	i	nt
CCOC(=O)c1cc(NC(=O)CCC(=O)O)ccc1N1CCCCC1	nt	2.3	-1.2	0.7	-8	-8	-3.2	i	8%
CC(=O)N(C)C[C@@H]1Oc2cc(-c3cccc(F)c3)ccc2S(=O)(=O)N([C@H](C)CO)C[C@H]1C	nt	nt	-0.6	nt	-5	-11	-6.6	i	nt
CN(C)S(=O)(=O)c1cccc(C(=O)NCC2(N3CCOCC3)CCCCC2)c1	-32	-1.8	-6.4	0.65	9	5	-7.0	i	-2%
COC(=O)[C@@]1(Sc2ccc(C)cc2)CC(=O)N(c2ccc(Cl)cc2)[C@@H]1c1ccccc1	nt	-2.3	-2.5	nt	16	14	3.5	i	nt
C[C@]12c3[nH]c4cc(-c5ccco5)ccc4c3CCN1C(=O)[C@@H](CC(=O)NCCN1CCOCC1)C[C@@H]2C(=O)N1CCOCC1	nt	-3.3	9.7	0.69	4	7	-1.9	i	-5%
COc1ccccc1-c1ccccc1[C@@H]1[C@@H](CO)N(C(=O)C2CC2)[C@H]1C#N	nt	nt	0.3	nt	4	1	1.5	i	nt
COc1cc(/C=C/C(=O)OCC(=O)Nc2ccccc2Sc2ccc(Cl)cc2)ccc1O	91*	0.4	2.5	0.66	-22	-14	20	i	17%
O=C(CN1C(=O)NC2(CCc3ccccc3C2)C1=O)NCc1ccco1 (centres undefined)	-1	1.4	-2.3	0.68	10	12	1.6	nt	?
Cc1cccc(C)c1NC(=O)C(c1cccc2ccccc12)n1c(=O)c(-c2ccco2)nc2ccccc21 (centres undefined)	nt	32	3.6	nt	-14	-8	4.2	i	nt
C[C@@H](c1ccccc1)N1C[C@@H](COCc2ccccc2)Oc2cc(N3CC[C@@H](O)C3)ccc2S1(=O)=O	nt	-0.2	-3.8	nt	-5	-11	-7.0	i	nt
CN1CCN(C(=O)C(N)Cc2ccccc2)CC1 (centres undefined)	-4	1.1	2.7	0.67	17	11	-1.4	nt	nt
Cc1noc(C)c1CS(=O)(=O)c1ccc(Br)cc1	1	-1.1	-2.1	0.65	-7	3	-2.4	i	8%
COCc1c(C#N)c(NCCc2ccc(F)cc2)nc(C)c1[N+](=O)[O-]	nt	0.4	-2.2	0.71	-17*	1.3*	1.9*	i	nt
O=C(N/N=C/c1ccccn1)c1[nH]c2ccc([N+](=O)[O-])cc2c1-c1ccccc1	-1	-3.7	8.5	nt	-36	-49	-12	i	nt
Cc1ccc(S(=O)(=O)N2CCC(=O)N([C@H](COCc3ccccc3)Cc3ccccc3)CC2)cc1	nt	-0.2	0.8	nt	-9	-6	1.6	i	nt
COc1ccccc1Nc1nc(C)nc2c1oc1ccccc12	0	7.4	1.2	nt	1	14	-0.8	i	nt
COCCCNc1ncnc2ccc(C)cc12	-1	-2.5	nt	0.7	nt	nt	nt	nt	6%
COCCCn1c(=O)/c(=C\c2cccc(OC)c2OC)s/c1=C(/C#N)C(=O)Nc1ccc(C(=O)O)cc1	98*	14	7.8	nt	-11	-14	8.4	i	nt
COc1nc2ccccc2c(=O)n1OCC(C)C	-12	-1.9	nt	0.68	nt	nt	nt	nt	0%
C[C@H](CO)N1C[C@H](C)[C@H](CN(C)C)Oc2ccc(N(C)C)cc2CC1=O	nt	nt	-2.4	nt	1	1	0.9	i	nt
CC(C)Cc1nc(SCC(=O)Nc2ccc(S(N)(=O)=O)cc2)n[nH]1	20	8.9	nt	0.69	nt	nt	nt	nt	6%
CC(C)C(O)(C#CCN1CCCCC1)c1ccccc1 (centres undefined)	0	-1.4	nt	0.66	nt	nt	nt	nt	6%
CCOC(=O)c1c(C)[nH]c(C(=O)COC(=O)COc2ccccc2C=O)c1C	18	-1.7	nt	0.65	nt	nt	nt	nt	nt
O=C(C[C@@H]1C[C@@H]2c3cc(NS(=O)(=O)c4ccccc4)ccc3O[C@@H]2[C@H](CO)O1)NCC(F)(F)F	nt	nt	-0.6	nt	-1	0	-0.8	i	nt
COc1ccccc1C1=NOC(Cn2c(NCCOCCO)nc3c2c(=O)n(C)c(=O)n3C)C1 (centres undefined)	nt	4.3	-1.3	0.65	8	2	-0.6	i	1%

(cont.)
SMILES	ALR H2O2 inh	HNF4A DNA FP	AF4-AF9 inh	Ecoli growth	Ecoli rRNA inh	Ecoli rRNA inh OD600	Ecoli rRNA inh RFP	FGF22 binding	Vif TR-FRET
CON(C)C(=O)CC1(CN(Cc2ccccc2)C(=O)OC(C)(C)C)CCCCC1	-2	1.7	-13	0.63	-21	-31	-0.8	i	nt
Cc1cccc(NC(=O)c2ccc(NS(=O)(=O)c3c(C)noc3C)cc2)c1	3	0.5	nt	0.71	nt	nt	nt	nt	18%
O=C(CCCc1c[nH]c2ccccc12)N[C@@H](Cc1c[nH]c2ccccc12)C(=O)O	26	-0.7	0.3	0.69	5	8	2.5	i	-2%
CNC[C@H]1Oc2ccc(NS(=O)(=O)c3ccccc3)cc2CC(=O)N([C@@H](C)CO)C[C@@H]1C	nt	nt	-1.0	nt	5	3	0.2	i	nt
CC(C)N(C(=S)NCc1ccccc1)c1ccccc1	-5	-0.2	0.6	0.72	-19	-31	-4.4	i	-11%
Oc1[nH]c2ccccc2c1N=Nc1ccccc1F	31	72	2.5	0.69	58	15	-0.1	i	nt
CCO[C@H]1OC(C(=O)NCc2nc3ccccc3[nH]2)=C[C@@H](c2csc3ccccc23)[C@@H]1CCCO	nt	1.8	-0.9&-3.9	nt	4	-1	4.8	i	0%

Two entries from above, with values ahead of the structure.
ALR H2O2 inh	HNF4A DNA FP	AF4-AF9 inh	Ecoli growth	Ecoli rRNA inh	Ecoli rRNA inh OD600	Ecoli rRNA inh RFP	FGF22 binding	Vif TR-FRET	smiles
18	-1.7	nt	0.65	nt	nt	nt	nt	nt	CCOC(=O)c1c(C)[nH]c(C(=O)COC(=O)COc2ccccc2C=O)c1C
nt	nt	-0.6	nt	-1	0	-0.8	i	nt	O=C(C[C@@H]1C[C@@H]2c3cc(NS(=O)(=O)c4ccccc4)ccc3O[C@@H]2[C@H](CO)O1)NCC(F)(F)F

Screening data as filed in PubChem BioAssay.

A portion of the library; rates above refer to the full screens.
